From PubChem
Tg IFNy HTS = T. gondii growth inhibition with IFN-gamma, primary screen, cell-based. activity change, negative = inhibition, %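 (about 20 µM by stock and volumes)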. hit rate 3.8% among 69,000. Toxoplasma gondii growth in IFN-gamma-treated host cells; stronger effect = lower value; reference of the scale not given here. AID 1259416, 2018;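 active = below -70%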;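 also: host cells are HeLa cells infected with Toxoplasma gondii; parasite growth read as luciferase light; one replicate is shown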
Active calls of the source: *; i = inactive; & = joins results of further samples. Not all compounds are listed; count on the stated rates, not on these rows.

Structure,Tg IFNy HTS
O=C(CC1N=C2c3ccccc3N=C(SCc3cccc(F)c3)N2C1=O)NCc1ccc(F)cc1 (stereo not given),-21.4
Cc1cnc(-c2nnc(NCC3CCCO3)s2)cn1 (stereo not given),31.1
Cc1ccccc1S(=O)(=O)N1CCCCN2[C@H](CO)[C@H](c3ccc(C#CCN(C)C)cc3)[C@H]2C1,-41.4
CCOC(=O)N1CCN(Cc2ccc3c(c2)CN(C(=O)c2cccc(-n4cccn4)c2)CCO3)CC1,-48.1
COc1ccc(-c2nc(C)c(CCNC(=O)C3CCCCC3)s2)cc1,i
O=C1CC(N2CCN(c3ncccn3)CC2)C(=O)N1c1ccccc1 (stereo not given),5.2
COc1ccc(CN(C)C[C@@H]2OCCCC[C@H](C)Oc3ccc(NC(=O)C4CCCCC4)cc3C(=O)N([C@H](C)CO)C[C@@H]2C)cc1,77.8
Cc1nnc2n1N=C(c1ccc(-c3ccc(Cl)c(Cl)c3)o1)CS2,33.3
Cc1ncc(C(=O)O)c(-c2ccccc2)n1,0.4
COc1cc(CN2CC3(CN(S(=O)(=O)c4cccc(F)c4)C3)c3c([nH]c4cc(OC)ccc34)[C@@H]2CO)cc(OC)c1,-44.6
COc1ccc(NC(=O)N2CCC(c3nc(C(=O)N(C)C)c(C)o3)CC2)cc1,76.1
Cc1ccc(S(=O)(=O)NCc2noc(-c3ccc(Cl)cc3)n2)s1,21.1

Structure,Tg IFNy HTS
COc1ccc(N(CCc2ccccn2)C(=O)c2cnc(SC)nc2)cc1,10.2
O=c1n(-c2ccccc2)c(=O)n2n1C1C=CC2C1,13.0
C=CCNc1ccccc1C(=O)N(CC)CC1CCOCC1,9.7
Cc1noc(C)c1S(=O)(=O)N(C)C[C@@H]1OCc2ccccc2-c2c(n(C)c3ccccc23)C(=O)N([C@H](C)CO)C[C@@H]1C,-25.6
CC(C)(C)c1cc2n(n1)C1=NCCN1C=N2,-13.2
CC(C)C(=O)Oc1ccc(CO)cc1[C@H](CCN(C(C)C)C(C)C)c1ccccc1,16.1
O=C1NCC2(CCCN(C(=O)c3csc(Cc4ccccc4)n3)C2)O1 (stereo not given),2.9
COc1ccc(OC)c(C(=O)c2coc3ccc(O)cc23)c1,16.2
Cc1cccc2nc(C(=O)N3CCCC(C(=O)c4ccc(Oc5ccccc5)cc4)C3)cn12 (stereo not given),0.3
Cc1cccc(-c2ccc(C(=O)O)c(N3Cc4cnc(C(C)(C)C)nc4C3)n2)c1,-6.8
CCS(=O)(=O)N1C[C@H]2CN(c3cnn(C)c3)C(=O)[C@H]2C1,-0.8
COc1ccc(C#Cc2ccc3c(c2)[C@@H]2[C@@H](CCN2S(=O)(=O)c2ccccc2C)[C@@H](CO)N3C)cc1,-22.5

Structure,Tg IFNy HTS
Cc1nc(-c2cc(C(=O)N3CCC(N(C)C)CC3)c3ccccn23)cn1C(C)C,-9.0
COc1ccc(-c2cc(-c3ccccc3)c(-c3ccccc3)o2)cc1,-16.1
Cc1ccccc1NC(=S)c1cc(C(C)(C)C)c(O)c(C(C)(C)C)c1,13.6
CCc1cccc(N(C(=O)c2ccc(NC(C)=O)cc2)C2(C(=O)NCc3ccccc3)CCN(C(C)=O)CC2)c1,46.0
Cc1ccc(C(=O)Nc2nncs2)cc1S(=O)(=O)N1CCOCC1,-2.3
CCOc1ccccc1NC(=O)Cn1c(=O)ccc2cc(S(=O)(=O)N3CCCC3)ccc21,-34.6
Cc1cccn2c(CNC(=O)c3ccc(C#CC(C)(C)O)o3)cnc12,-20.3
O=C(O)CN1C[C@H]2CN(c3ccccc3)C(=O)[C@@H]2C1,60.4
c1cn(Cc2ccsc2)c(-c2cnc[nH]2)n1,18.7
Cc1cccc(CNC2CCC3(CCC(=O)N3)CC2)n1 (stereo not given),7.0
COc1cc(-c2ccc(C(C)N3CCOCC3)cc2)cc2cc(C(=O)O)oc12 (stereo not given),7.5
Cc1noc(C)c1CN(C)C(=O)c1cccc(NCc2cccnc2)c1C,-8.6

Taken from above.
Result of `COc1ccc(-c2cc(-c3ccccc3)c(-c3ccccc3)o2)cc1` in Tg IFNy HTS: -16.1
Result of `Cc1cccn2c(CNC(=O)c3ccc(C#CC(C)(C)O)o3)cnc12` in Tg IFNy HTS: -20.3
Result of `CCc1cccc(N(C(=O)c2ccc(NC(C)=O)cc2)C2(C(=O)NCc3ccccc3)CCN(C(C)=O)CC2)c1` in Tg IFNy HTS: 46.0
Result of `Cc1noc(C)c1CN(C)C(=O)c1cccc(NCc2cccnc2)c1C` in Tg IFNy HTS: -8.6
Result of `Cc1ccccc1NC(=S)c1cc(C(C)(C)C)c(O)c(C(C)(C)C)c1` in Tg IFNy HTS: 13.6

Later entries
Structure,Tg IFNy HTS
CCCn1ncc(C(=O)N2CCCC(C(=O)c3nccn3C)C2)c1C (stereo not given),-39.0
CN1C(=O)CCc2cc(NC(=O)c3ccccc3F)ccc21,196.8
COc1ccc(C)cc1CNC(Cc1ccsc1)c1nccs1 (stereo not given),-10.6
COc1cc(Cl)cc(C(=O)N2CCC(O)(CN(C)C)C2)c1 (stereo not given),-1.8
Cc1cc(C)c2c(CC(=O)N3CCCC4(CNC(=O)O4)C3)coc2c1C (stereo not given),-23.9
CCN1CCNC(=O)C12CCN(C(=O)Cc1ccsc1)CC2,-3.5
Nc1nc(-c2ccccc2)cn1Nc1ccccc1,105.9
CCc1cccc(NC(=O)N2CCC3(CC2)COCCN(CC(=O)N(C)C)C3)c1,29.7
CNC(=O)C(C)N(C)C(=O)c1cc2c(n(C)c1=O)CCCC2 (stereo not given),-0.2
CC(C)C(=O)NCCc1csc(C2CCCN(C(=O)c3cc4ccccc4[nH]3)C2)n1 (stereo not given),-37.8
COc1ccc2c(c1)NC1(CCN(C(=O)Nc3ccc(Br)cc3)CC1)c1cccn1-2,i
COc1ccc(O)c(C(=O)C2c3ccccc3C(=O)N2c2ccc(C)cc2)c1 (stereo not given),110.4

Structure,Tg IFNy HTS
Cc1c[nH]c(C(=O)N2CCCC3(CC2)CNC(=O)O3)c1 (stereo not given),-30.2
COc1ccc(C(O)C(=O)N2CCC(O)(CO)CC2)cc1 (stereo not given),-28.9
NS(=O)(=O)c1ccc(CCn2cnnc2)cc1,-2.7
CCC/C=C/c1cc(C(=O)O)cc(S(=O)(=O)N2CCCC2)c1,-2.7
CN1C[C@@H](O)COC[C@H]2O[C@H](CC(=O)NC3CCCC3)CC[C@@H]21,-6.1
Cc1cc(CN2CCC3(CCCN(Cc4nccs4)C3)C2)oc1C (stereo not given),6.7
CCS(=O)(=O)N1CC[C@H]2[C@@H]1CCN2Cc1cnn(C)c1,-47.9
Cc1ccc(F)cc1-n1c(C2CC2)n[nH]c1=O,3.7
COc1cccc(S(=O)(=O)Nc2ccc3c(c2)C(=O)N(C)[C@@H]2CC[C@H](CC(=O)NCC4CCCCC4)O[C@H]2CO3)c1,-15.0
CCc1ccc2c(c1)cc(S(=O)(=O)c1ccccc1)c(=O)n2CC(=O)N1CCCCC1,-14.4
CC(=O)N1CCc2c([nH]c3ccccc23)C12C(=O)N(C)c1ccccc12 (stereo not given),492.2
O=C(c1cccs1)N1CCOCC2(CCC(Cn3cccn3)O2)C1 (stereo not given),-48.7

Given with each value named: 4 of the compounds above.
> CCc1ccc2c(c1)cc(S(=O)(=O)c1ccccc1)c(=O)n2CC(=O)N1CCCCC1
  Tg IFNy HTS: -14.4

> Cc1cc(CN2CCC3(CCCN(Cc4nccs4)C3)C2)oc1C (stereo not given)
  Tg IFNy HTS: 6.7

> CC(=O)N1CCc2c([nH]c3ccccc23)C12C(=O)N(C)c1ccccc12 (stereo not given)
  Tg IFNy HTS: 492.2

> CCS(=O)(=O)N1CC[C@H]2[C@@H]1CCN2Cc1cnn(C)c1
  Tg IFNy HTS: -47.9

Going on with the list:
Structure,Tg IFNy HTS
COc1cccc(C(=O)N2CCN(S(=O)(=O)c3cc4c5c(c3)CCN5C(=O)CC4)CC2)c1OC,40.2
COc1ccc(Nc2nnc(-c3ccc(C(N)=O)cc3)c3ccccc23)cc1,16.1
Cc1cnc(N2CC[C@H]3CN(Cc4cccnc4)S(=O)(=O)[C@@H]3CC2)nc1,-4.1
O=C(Nc1nc2ccccc2s1)c1cncc(NS(=O)(=O)c2ccc(F)cc2)c1,-35.7
CC1=C(C(=O)NCc2cccs2)C2(CCN(S(C)(=O)=O)CC2)OC1=O,11.2
COc1ccc(-c2ccccc2[C@H]2[C@@H](CO)N(C(=O)NC(C)C)[C@H]2C#N)cc1,-33.7
Cc1ccccc1CNC1=NCCNC12CCN(S(=O)(=O)c1ccc(CC(C)C)cc1)CC2,-29.7
O=C(/C=C/c1ccc(O)c(O)c1)OCCc1ccccc1,-32.8&-12.9
CC(C)NC(=O)N(C)C[C@@H]1Oc2c(NS(=O)(=O)c3cccs3)cccc2C(=O)N([C@@H](C)CO)C[C@H]1C,12.1
COc1ccc(NC(=O)Cn2c(=O)ccc3cc(S(=O)(=O)N4CCC(C)CC4)ccc32)cc1OC,-12.9
COc1ccc(-c2ccc3c(c2)[C@@H]2[C@@H](CCN2C(=O)c2ccncc2)[C@@H](CO)N3C)cc1,17.7
Cc1nn(-c2ccccc2)c(C)c1S(=O)(=O)N1CCn2cncc2C1,-16.0

Structure,Tg IFNy HTS
CCc1nnc(NC(=O)C(=O)N(C)C2Cc3ccccc3C2)s1,-3.2
Cc1c(NC(=O)c2ccco2)cccc1C(=O)NC(C)c1cccs1 (stereo not given),6.0
CCS(=O)(=O)N1CCC2(CC1)OC(=O)C(C)=C2C(=O)Nc1cc(Cl)ccc1C,48.1
O=C(O)C(=O)Nc1cccc(-c2nn[nH]n2)c1,40.6
COCCN1CCO[C@H]2CCN(C(=O)c3ccn(C)n3)C[C@H]21,-24.7
COc1cc(C2C(C(C)=O)=C(O)C(=O)N2c2ccc(C)cc2)ccc1O (stereo not given),7.5
O=C1NCC2(CCCN(C(=O)c3cnc4ccccc4c3)CC2)O1 (stereo not given),-5.8
C[C@@H]1CN([C@@H](C)CO)C(=O)Cc2cc(NC(=O)C3CC3)ccc2O[C@H]1CN(C)S(=O)(=O)c1cn(C)cn1,-11.6
COc1ccc(-c2ccc(=O)[nH]n2)cc1,-114.9*
CN(C)C(=O)c1cccc(-c2ccc([C@@H]3[C@H](CO)N4CCCCN(CC5CCOCC5)C[C@@H]34)cc2)c1,14.8
Cc1ccc(OCC2CCCN(C(=O)c3ccc(-n4cnnc4)cc3)C2)cc1 (stereo not given),-16.4
Cc1ccc(-c2coc(-c3ccc(NC(=O)Nc4ccc5c(c4)OCCO5)cc3)n2)c(C)c1,8.7

Structure,Tg IFNy HTS
CCN1c2cc(C)ccc2-n2cccc2C12CCN(C(=O)NCc1ccco1)CC2,41.5
CC(C)CN1C[C@@H]2CCNCC[C@H]2S1(=O)=O,-37.2
CCC(=O)N1[C@H](CO)[C@@H](c2ccccc2)C12CN(C(=O)c1ccncc1)C2,5.8
C[C@@H]1CN([C@H](C)CO)C(=O)CCCn2cc(nn2)CO[C@H]1CN(C)Cc1ccccc1,7.8
CC1CN(CCC(=O)NC(c2ccccn2)C(F)(F)F)Cc2cc(Cl)ccc2O1 (stereo not given),4.3
COc1cccc(NC(=O)C[C@@H]2CC[C@@H]3[C@H](COc4ccc(NS(=O)(=O)c5cccc(F)c5)cc4C(=O)N3C)O2)c1,-24.0
CCN1c2cc(Cl)ccc2C(=O)NC12CCN(C(=O)Nc1ccccc1C)CC2,77.3
COc1ccc(C(=O)N2CCC3(CC2)NC(=O)c2cc(F)ccc2N3C)c(OC)c1,3.7
Cc1ccc(C)c(NC(=O)N2CCC3(CC2)Nc2cc(C)ccc2-n2cccc23)c1,-53.6
CCCCN(C)C(=O)c1cc(-c2cnc(N3CCOCC3)nc2)cn1C,-6.6
COc1ccc(F)c(-c2cncc(C(=O)N3CCCCC3)n2)c1,-9.2
Cc1oc(C(=O)N2CCc3sccc3C2c2ccccc2)cc1CN1CCOCC1 (stereo not given),57.9

Structure,Tg IFNy HTS
CC(C)(C)OC(=O)N1CCC(CC2(C(N)=O)CCCN2)CC1 (stereo not given),28.2
CCCc1nc(CNC(=O)c2cc3n(n2)CCCN(C(C)=O)C3)cs1,30.6
Cc1ccccc1-c1nc(CSc2nc3c(=O)[nH]cnc3n2C)c(C)o1,-0.8
O=C(c1nc(-c2cccc(F)c2)n2c1CCCCC2)N1CCCCCC1,-87.5*
CC(C)(C)c1ccc(-n2c(SCc3ccc(Cl)c(Cl)c3)n[nH]c2=O)cc1,-64.7
CCS(=O)(=O)N1C[C@@H]2CCCO[C@H]2[C@@H](N(C)Cc2ccco2)C1,-0.1
CN(C)C(=O)COC1CC2(CCN(c3cnccn3)CC2)c2ccccc21 (stereo not given),41.6
O=S(=O)(NC[C@@]12COC[C@@H]1CN(Cc1cccs1)C2)C1CC1,43.2
COc1cc2c(cc1OC)[C@@H]1CC(=O)[C@@H](CC(C)C)CN1CC2,11.5&5.3
N#Cc1cccc(-c2ccc3c(c2)[C@H]2[C@H](CCN2S(=O)(=O)c2ccc(F)cc2)[C@H](CO)N3)c1,-0.8
COCC(=O)N(C)C[C@H]1[C@H](c2ccccc2)[C@@H](CO)N1C(=O)Cc1ccncc1,9.9
O=C1CC[C@@H](C(=O)N2CSC[C@H]2C(=O)O)N1,15.4

Structure,Tg IFNy HTS
COc1ccc2c(c1)NC1(CCN(C(=O)COc3ccc(Cl)cc3)CC1)c1cccn1-2,18.0
COC(=O)[C@@H]1C[C@H](NS(=O)(=O)c2c(C)cc(OC)c(C)c2C)CN1C,19.8
COc1ccccc1CN(Cc1cccnc1)C(=O)Cc1ccc2c(c1)CC(C)O2 (stereo not given),-13.8
COc1ccc(-c2nc(C)c(CCNC(=O)c3ccc(F)c(F)c3)s2)cc1OC,i
CCCCC[C@H](O)/C=C/[C@@H]1[C@H]2C/C(=C/CCCC(=O)O)O[C@H]2C[C@H]1O,7.8
COc1cc(C)nc(NS(=O)(=O)c2ccccc2)n1,-53.2
CCCC#Cc1ccc([C@@H]2[C@@H](CO)N(C(=O)CN3CCOCC3)[C@H]2C#N)cc1,-4.0
